Source: PubChem BioAssay (National Center for Advancing Translational Sciences (NCATS))
miR-21 reporter: raises the signal of a miR-21 reporter; 340,000 tested, under 10 active; HeLa miR-21 FLuc reporter, luciferase, 48 h; Potency, µM (top dose mostly 38.3 µM), for the others: top-dose reporter change, positive = more light; active = well fitted rising curve with a large enough effect; inconclusive = small, poorly fitted or top-dose-only effect; inactive = no such curve, though single readings can be large or run the other way;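 also: % of control where 0% means no effect; miR-21 action dims this reporter so a rising signal means less miR-21 action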
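HeLa cells endogenously expressing miR-21, stably carrying CMV-driven firefly luciferase with a downstream miR-21 binding site, 2000 cells/well. Titrations up to approximately 40 uM, 48 hours; luciferase luminescence read.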
Rango-impB inh: inhibitors of Rango-importin beta complex formation. Q14974. Rango CFP/YFP FRET sensor + importin beta, 45 min. Potency, µM (doses to about 92.2 µM), without a hit: top-dose inhibition of complex formation. actives 0.031% (n = 340,000). AID 540263; active = rising FRET ratio curve, often small or poorly fitted; inconclusive = mostly compound fluorescence or quenching in the first reads; inactive = flat curves in all reads;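 also: potency is read from the fitted curve at half-maximal effect; 0% = DMSO wells and 100% = buffer wells lacking importin beta; nearly all actives have a fitted effect of over 15% in size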
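FRET biosensor Rango (snurportin 1 IBB between N-terminal EYFP and C-terminal Cerulean), 50 nM in PBS/1 mM DTT/0.02% Tween-20/0.1% BSA, preincubated 5 min RT with compound; 0.125 microM importin beta added, 45 min RT, CFP/YFP FRET ratio read.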
GLA inh pH 4.5: inhibitors of human alpha-galactosidase A at pH 4.5. purified enzyme, 4-MU-alpha-Gal fluorescence, pH 4.5. AID 1467. activity change, negative = inhibition, % at 105 µM. 230,000 tested, under 10 active; inconclusive = small, poorly fitted or top-dose-only inhibition, or a rising curve; inactive = flat fitted curve, though single readings scatter; no compound was filed as active;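 also: 0% = full activity with enzyme and -100% = basal without enzyme; dose as in the result columns while the protocol names 77 µM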
Target sequence (P06280 whole entry, looked up): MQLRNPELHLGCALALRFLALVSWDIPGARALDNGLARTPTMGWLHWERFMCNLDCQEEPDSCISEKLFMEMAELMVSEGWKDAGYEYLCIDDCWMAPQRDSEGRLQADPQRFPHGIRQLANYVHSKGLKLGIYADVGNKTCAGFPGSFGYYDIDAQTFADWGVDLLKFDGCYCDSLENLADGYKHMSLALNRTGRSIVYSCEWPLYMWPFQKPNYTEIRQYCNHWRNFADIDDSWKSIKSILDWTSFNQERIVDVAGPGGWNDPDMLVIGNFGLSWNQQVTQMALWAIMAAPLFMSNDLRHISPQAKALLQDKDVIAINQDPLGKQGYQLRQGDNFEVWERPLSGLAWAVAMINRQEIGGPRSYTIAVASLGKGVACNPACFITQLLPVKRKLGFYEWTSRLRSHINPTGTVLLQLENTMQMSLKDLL
Rango dissoc inh: inhibition of RanGTP-driven Rango-importin beta dissociation | Potency, µM (series often up to 46.1 µM), for inactives: top-dose activity change, negative = inhibition | Biochemical FRET Rango-importin beta, RanGTP-induced dissociation | O95149+P62826 | actives 0.071% (n = 340,000); active means falling FRET ratio curve, often poorly fitted, with flat reads before Ran was added; inconclusive means other falling curves, or compound fluorescence or quenching; inactive means flat or rising ratio curve;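 also: potency is read from the fitted curve at half-maximal effect; % of control where 0% means no effect; nearly all actives have a fitted effect of over 45% in size; -100% = wells without RanGTP and RCC1; the record marks most hits as doubtful in a second field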
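Rango/importin beta premix (0.1/0.25 uM final), PBS + 1 mM DTT + 0.02% Tween-20 + 0.1% BSA; cpd 5 min RT; FRET pre-read; + RanGTP-RCC1 (0.6 uM Ran, 2 mM GTP, 0.2 uM RCC1); 45 min RT; FRET post-read, ex 430, em 486/530 nm.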
* hit, by the source's call; ? = inconclusive; nt = no result given; & = joins results of further samples. Not all compounds are listed. The share of hits here may be higher or lower than overall.

Rango-impB inh	GLA inh pH 4.5	Structure	miR-21 reporter	Rango dissoc inh
-2.0%	-5&2	CCCc1nn(C)c2c(=O)[nH]c(-c3cc(S(=O)(=O)N4CCN(C)CC4)ccc3OCC)nc12	-1%	-7%
1.7%	nt	Cc1c(O)ccc(C(=O)CN2CCN(Cc3ccccc3)CC2)c1O	-1%	-4%
-1.8%	nt	Cc1c(C(=O)N2CC(C(=O)N3CCCCC3)Oc3ccccc32)oc2ccccc12 (configuration not stated)	nt	4%
-2.1%	nt	O=C1C2CCCN2C(=O)N1CCN1CCN(c2cccc(C(F)(F)F)c2)CC1 (configuration not stated)	nt	10%
-0.2%	nt	C=CC[C@H](CC(=O)NCCO)C(=O)N[C@H](COC(=O)[C@@H](CC=C)Cc1ccc(F)cc1)Cc1ccccc1	nt	2%
?	8	CC1=CC(c2ccc(Cl)cc2)n2nc(NC(=O)c3ccccc3)nc2N1 (configuration not stated)	1%	-9%
-0.4%	nt	CCOc1ccc(CNC(=O)Cn2nc(C)n3nc(-c4ccccc4)cc3c2=O)cc1	-2%	-14%
?	nt	CCC1=C([N+](=O)[O-])C(c2ccc3c(c2)OCO3)NC(=O)N1 (configuration not stated)	0%	0%
0.9%	nt	COc1ccc(S(=O)(=O)N(C)C[C@H]2Oc3ccc(NC(=O)Cn4cnnn4)cc3C(=O)N([C@H](C)CO)C[C@@H]2C)cc1	nt	-4%
-0.1%	nt	CCOc1ccc(NC(=O)C(C)N2C(=O)c3ccccc3C2=O)cc1 (configuration not stated)	2%	4%

Next section, overlapping the part above by five compounds.
Rango-impB inh	GLA inh pH 4.5	Structure	miR-21 reporter	Rango dissoc inh
?	8	CC1=CC(c2ccc(Cl)cc2)n2nc(NC(=O)c3ccccc3)nc2N1 (configuration not stated)	1%	-9%
-0.4%	nt	CCOc1ccc(CNC(=O)Cn2nc(C)n3nc(-c4ccccc4)cc3c2=O)cc1	-2%	-14%
?	nt	CCC1=C([N+](=O)[O-])C(c2ccc3c(c2)OCO3)NC(=O)N1 (configuration not stated)	0%	0%
0.9%	nt	COc1ccc(S(=O)(=O)N(C)C[C@H]2Oc3ccc(NC(=O)Cn4cnnn4)cc3C(=O)N([C@H](C)CO)C[C@@H]2C)cc1	nt	-4%
-0.1%	nt	CCOc1ccc(NC(=O)C(C)N2C(=O)c3ccccc3C2=O)cc1 (configuration not stated)	2%	4%
-1.4%	nt	CCCc1nnc(NS(=O)(=O)c2ccc(C)cc2)o1	nt	7%
4.1%	nt	COc1ccc(OCC(=O)NC2CCCc3ccccc32)cc1 (configuration not stated)	-6%	-1%
-9.2%	2	O=C(Cn1nnc(-c2ccccc2F)n1)Nc1ccc2c(c1)OCO2	-12%	-4%
-3.3%	nt	O=C(N/N=C/c1ccc(F)cc1)c1ccncc1	-3%	19%
7.8%	9	Cc1nnc(SCC(=O)NCc2ccco2)[nH]c1=O	-1%	10%
-1.4%	nt	COc1ccc(NC(=O)/C(N=Nc2ccc(Cl)c(S(=O)(=O)Nc3ccc(Cl)cc3)c2)=C(\C)O)cc1	nt	1%
-1.7%&-1.8%	-11	COc1ccc([N+](=O)[O-])cc1NC(=O)CC1SC(=Nc2cccc(C)c2C)N(/N=C/c2cccc(OC)c2OC)C1=O (configuration not stated)	-2%	-12%&1%
-0.2%	nt	COc1ccc(-c2nn(-c3ccccc3)cc2/C=C2/SC(=S)N(CCC(=O)O)C2=O)c(C)c1	-3%	-1%
0.9%	3	O=C(CN1C(=O)C2C3CC(C(Br)C3Br)C2C1=O)Nc1ccc(C(=O)O)cc1 (configuration not stated)	2%	-2%
-0.5%	nt	CCCOc1cccc(C(=O)NCCNC(=O)c2ccc(C)nc2)c1	-1%	-6%

Single values from the results shown.
In GLA inh pH 4.5, `COc1ccc([N+](=O)[O-])cc1NC(=O)CC1SC(=Nc2cccc(C)c2C)N(/N=C/c2cccc(OC)c2OC)C1=O` (configuration not stated) has the entry -11
In miR-21 reporter, `COc1ccc(-c2nn(-c3ccccc3)cc2/C=C2/SC(=S)N(CCC(=O)O)C2=O)c(C)c1` has the entry -3%
In Rango dissoc inh, `COc1ccc(NC(=O)/C(N=Nc2ccc(Cl)c(S(=O)(=O)Nc3ccc(Cl)cc3)c2)=C(\C)O)cc1` has the entry 1%
In Rango-impB inh, `O=C(Cn1nnc(-c2ccccc2F)n1)Nc1ccc2c(c1)OCO2` has the entry -9.2%

Following part:
Rango-impB inh	GLA inh pH 4.5	Structure	miR-21 reporter	Rango dissoc inh
0.5%	nt	Cc1ccc(C)c(S(=O)(=O)NCCCc2ccccc2)c1	-4%	13%
-2.4%	-8	C/C(=N/OC(=O)c1ccc(C)cc1)C(=O)c1ccc(Br)cc1	2%	-15%
-1.1%	5	Cc1cc(SCC(=O)N/N=C/c2cccnc2)nc2c(C)cccc12	-3%	-2%
0.4%	nt	CS(=O)(=O)c1ccc(-c2cccc(NC(=O)c3ccc(Br)o3)c2)nn1	nt	1%
1.4%	3	Cc1cc(-c2csc(NC(=O)c3ccccc3C(F)(F)F)n2)c(C)n1Cc1ccccc1	1%	10%
-1.9%	1	COc1ccccc1NC(=O)C1=C(C)NC(=O)NC1c1ccco1 (configuration not stated)	3%	1%
?	4	Cc1cc(/C=C2\SC(=O)N(CC(=O)Nc3ccccc3F)C2=O)c(C)n1C	3%	-16%
0.1%	0	CC(=O)c1c(C)[nH]c(C(=O)Nc2ccc(S(=O)(=O)N(C)C)cc2)c1C	0%	-7%
0.6%	nt	COc1ccc(CCNC(=O)C2CCCN2S(=O)(=O)c2cccc3nsnc23)cc1OC (configuration not stated)	-2%	-8%
1.8%	-3	S=C(Nc1cccc2ccccc12)NN1CCOCC1	-20%	3%
-0.1%	11	O=C(CC1COc2ccccc2O1)NCCc1ccccc1 (configuration not stated)	-21%	3%
-0.5%	nt	O=C1NC(=S)NC(=O)C1=Cc1ccccc1C(=O)O	nt	-9%
0.7%	nt	CCCOc1ccc(NC(=O)CC2C(=O)N(c3ccc(OCC)cc3)C(=S)N2C2CC2)cc1 (configuration not stated)	0%	-7%
0.1%	nt	Cc1ccc2c(c1)N(C(=O)CCC(=O)Nc1ccccc1Br)CC(C)O2 (configuration not stated)	4%	-4%
-0.3%	-11	O=C(Nc1ccccc1-c1ccccc1)NC1CCN(CC(=O)N2CCOCC2)CC1	-3%	0%
-3.5%	-10	CSc1ccc(N2C(=O)NC3(CCCCC3)C2=O)cc1	-22%	10%
0.8%	nt	O=C(Cn1cc(C(F)(F)F)ccc1=O)N1CCc2ccccc21	nt	20%
1.5%	-1	O=C(c1ccccc1Sc1cccc2ccccc12)N1CCOCC1	-11%	32%
1.0%	-1	CCCCOc1ccc(C(=O)N2CCCCCC2)cc1	-38%	-2%
1.7%	-8	Cc1cc(C(=O)CSc2nnc(-c3ccc(OC(F)F)cc3)o2)c(C)n1Cc1cccs1	1%	-8%
-0.3%	nt	CC(C)OCc1ccc(C(=O)N2CCN(CC(=O)N3CCCC3)CC2)cc1	nt	?
-0.2%	nt	O=C(CN1C(=O)c2ccccc2C1=O)c1ccc(F)cc1	-1%	6%
1.8%	-15	O=C(/C=C/c1cccc(C(F)(F)F)c1)Nc1cccc(C(F)(F)F)c1	?	-18%
-1.5%	-3	O=C1CCC([N+](=O)[O-])C(c2ccc(Cl)c([N+](=O)[O-])c2)N1 (configuration not stated)	2%	-4%
-0.4%	4	Cn1ccnc1SCc1nc2c(cnn2-c2ccccc2)c(=O)[nH]1	1%	-14%
-5.8%	7	Cn1c(CSCc2ccc(Cl)cc2Cl)n[nH]c1=S	3%	-5%
2.3%	nt	COc1ccccc1CCC(=O)OCC(=O)Nc1c(Br)cc(C)cc1Br	4%	-5%
8.1%	-1	CSc1nc(-c2ccccc2)nn1C(=O)c1ccc(Cl)cc1	-20%	-2%
-5.4%	5	O=C1CCCC(O)=C1C1NCCc2ccccc21 (configuration not stated)	-2%	-6%
?	-2	Cc1ccc(/C=N/NC(=O)C2=NNC(c3ccccc3)(c3ccccc3)C2)c(O)c1	-10%	-20%
?	2	COc1ccc(C2C(C#N)=C(N)OC3=C2C(=O)CCC3)c(OC)c1OC (configuration not stated)	-5%	-15%
0.5%	-2	COc1cccc(CC2(CO)CCCN(Cc3cc(F)ccc3-n3cccn3)C2)c1 (configuration not stated)	-1%	3%
-1.7%	nt	CC(=O)OCC(=O)C1(O)CCC2C3CC(C)C4=CC(=O)CCC4(C)C3C(O)CC21C (configuration not stated)	nt	-18%
-0.3%	2	Cc1nn(C)c(C)c1CS(=O)(=O)c1ccccc1	0%	0%
-1.2%	7	CC(C)N(C(=S)Nc1cccnc1)c1ccccc1	1%	-13%
1.4%	4	CC(=O)c1cccc(NC(=O)NC2CC3CCCC(C2)N3CC(C)C)c1 (configuration not stated)	-9%	-7%
0.1%	nt	Cc1cnc([N+](=O)[O-])n1CCOC(=O)c1cccc(F)c1	-6%	-1%
0.5%	nt	O=C(C1=C(O)C(=O)N(Cc2ccco2)C1c1cccc(Cl)c1)c1ccco1 (configuration not stated)	-1%	-8%
0.9%	-1	Cc1cc(NS(=O)(=O)c2ccc(NC(=S)NC(=O)c3cccnc3)cc2)no1	-5%	-9%
-6.9%	5	Cc1ccc(NC(=O)c2c(C)nn(-c3ccccc3)c2Cl)cc1	-48%	5%
0.0%	11	Cc1n[nH]c(=O)n1-c1ccc(OCc2ccccc2)cc1	-50%	-1%
-7.5%	-16	CCOc1ccc(OCc2ccc(C(=O)Nc3cccc(C)n3)o2)cc1	-22%	1%
1.8%	0	CC(C)Oc1c(Br)cc(Br)cc1/C=N/NC(N)=S	25%	-5%
4.0%	-2	O=C(NCc1cccnc1)C(=O)NCC1OCCCN1S(=O)(=O)c1ccc(Cl)cc1 (configuration not stated)	1%	?
3.7%	nt	NC(=O)[C@@H]1CCCN1C(=O)c1ccc2nc(Cc3ccccc3F)oc2c1	-11%	-10%
0.4%	-3	O=C(Nc1ccc2c(c1)CCC2)c1cc2ccccc2o1	-36%	11%
?	?	CCc1cc2c3c(c(=O)oc2cc1O)CCCC3	-12%	?
-3.6%	nt	COc1ccc(NC(=O)c2cc(-c3cc(Cl)ccc3O)n[nH]2)c(OC)c1	-3%	-16%
4.4%	7	O=C(NCc1ccccn1)c1ccc(Cl)s1	-15%	-3%
3.2%	-7	Cc1cc(=O)n(CCCO)c(O)c1C#N	3%	-7%

Other compounds follow:
Rango-impB inh	GLA inh pH 4.5	Structure	miR-21 reporter	Rango dissoc inh
-1.4%	nt	CC(=O)NCc1ccc(C(=O)COC(=O)COc2ccc(Cl)c(C)c2)s1	nt	-1%
-3.2%	-18	CC(=O)c1noc(C)c1C(=O)Nc1nccs1	7%	15%
-3.3%	nt	CCc1nnc(NC(=O)CN2C(=O)NC3(CC(C)CC(C)(C)C3)C2=O)s1 (configuration not stated)	-3%	-18%
0.5%	1	COc1ccccc1Nc1nc2c(s1)CCC2	-19%	-7%
-0.6%	nt	OCc1ccc2c(c1)c(-c1ccc3c(c1)OCCO3)c(-c1ccccc1)n2-c1ccccc1	nt	-11%
3.3%	nt	O=C(CN1CCN(S(=O)(=O)N2CCOCC2)CC1)Nc1ccc(Cl)c(Cl)c1	5%	-2%
2.3%	-13	CCC1=NN2C(=N)/C(=C\c3cccn3-c3ccc(OC)cc3)C(=O)N=C2S1	-3%	-12%
-4.0%	-5	CCN(C(=O)Cn1c(=O)n2nc(CCn3nc(C)cc3C)nc2c2ccccc21)c1cccc(C)c1	1%	-9%
-0.3%	nt	CC(C)Oc1ccc(S(=O)(=O)N2CCOCC2)cc1NC(=O)C1COc2ccccc2O1 (configuration not stated)	nt	59%
-0.4%	5	CN(C(=O)/C=C/c1ccco1)c1ccccc1C(=O)O	0%	-6%
0.1%	1	COc1ccc(Nc2ccc(S(=O)(=O)N3CCCCC3)cc2[N+](=O)[O-])cc1OC	9%	0%
-0.5%	2	Cc1ccc(-c2ccc(/C=C(\C#N)C(N)=S)o2)c([N+](=O)[O-])c1	-10%	0%
0.3%	7	O=C(CCNC(=O)c1ccc(Cl)cc1)Nc1ccc(F)cc1F	-7%	21%
